Compound activity (PubChem BioAssay)
Ecoli rRNA inh: inhibitors of bacterial rRNA selective over humanized ribosomes; actives 1.6% (n = 350,000); AID 720706; E. coli WT GFP vs humanized-ribosome RFP mutants, fluorescence, 24 h; hits give low values; DMSO median 0, no signal -100; GFP signal change (wild-type ribosome), % (no concentration beside the values);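 active = significant combined selectivity score with lowered wild-type GFP, culture density cut under 30%, mutant RFP and density less affected; inactive = any of these conditions unmet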; also: one replicate is shown; some compounds called inactive have numbers as strong as hits
Ecoli rRNA inh OD600: recorded beside Ecoli rRNA inh, whose call it bears; OD600 change, %; measured here: OD600 growth;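 optical density of the mix in the first replicate; 0 = DMSO median and -100 = no signal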
Ecoli rRNA inh RFP: recorded beside Ecoli rRNA inh, whose call it bears; RFP signal change, %; measured here: RFP humanized mutant strains;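 first replicate; 0 = DMSO median and -100 = no signal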
Starred values were filed as active, the others as inactive.

Value order: Ecoli rRNA inh | Ecoli rRNA inh OD600 | Ecoli rRNA inh RFP
- COC(=O)[C@]12C[C@H](CC(=O)N3CCCC3)C(=O)N(Cc3ccccc3)C1=C[C@H](C1CCCC1)O[C@@H]2C
  -10.5 | -10.3 | 2.0
- O=C(O)c1cocc1C(=O)O
  6.7 | 20.3 | 1.2
- O=C(C[C@@H]1CC[C@H]2[C@@H](COC[C@@H](O)CN2S(=O)(=O)c2ccccc2)O1)N1CCc2ccccc2C1
  -5.9 | -10.3 | -0.1
- C[C@@H]1CN([C@@H](C)CO)C(=O)c2cccc(NS(=O)(=O)c3cccs3)c2O[C@H]1CN(C)C(=O)Nc1cccc2ccccc12
  2.3 | 7.7 | 1.7
- Cc1ccc(S(=O)(=O)Nc2ccc3c(c2)CC(=O)N([C@H](C)CO)C[C@@H](C)[C@@H](CN(C)S(=O)(=O)c2ccc(F)cc2)O3)cc1
  -1.4 | -8.1 | 1.6
- Cc1ccc(C)c(S(=O)(=O)N2CCCC2CNC(=O)C(=O)Nc2ccccc2)c1 (stereo unspecified)
  -2.0 | -21.2 | 4.6
- C#CCNC(=O)C[C@H]1C[C@@]2(C(=O)OC)C(=C[C@H](C(C)(C)C)O[C@@H]2C)N(Cc2ccc3c(c2)OCO3)C1=O
  -7.3 | -12.5 | 8.1
- CCCNC(=O)C1(C)CCN1C(=O)c1cc(C)n(C)n1 (stereo unspecified)
  11.5 | 13.2 | 2.2
- O=C(N[C@@H]1CC[C@H](CC(=O)N2CCOCC2)O[C@@H]1CO)c1ccccn1
  3.9 | 2.3 | -2.2
- C[C@@H]1CCCCO[C@H](CN(C)C(=O)c2ccncc2)[C@@H](C)CN([C@H](C)CO)C(=O)c2cc(NS(=O)(=O)c3ccc(F)cc3)ccc2O1
  2.9 | 6.8 | 0.4
- CC(C)CC#Cc1cnc2c(c1)C(=O)N([C@H](C)CO)C[C@H](C)[C@@H](CN(C)C(=O)c1ccc3c(c1)OCO3)O2
  -3.3 | -26.6 | 15.6
- COc1ccccc1-c1ccccc1[C@H]1[C@H](C#N)N(C(=O)C2CC2)[C@H]1CO
  0.0 | 4.9 | -1.0
- CO[C@@H]1CN(C)C(=O)c2ccc(NS(=O)(=O)c3cccc(Cl)c3)cc2OC[C@@H](C)N(C(=O)Cc2cccnc2)C[C@H]1C
  -0.9 | 0.0 | -0.4
- CN1C(=O)c2cc(NC(=O)c3cccc(F)c3)ccc2OC[C@@H]2O[C@@H](CC(=O)NCC3CC3)CC[C@@H]21
  1.7 | 6.5 | -1.3
- C[C@@H]1CN([C@@H](C)CO)C(=O)c2cc(NS(=O)(=O)c3ccccc3)ccc2O[C@@H](C)CCCCO[C@H]1CN(C)C(=O)c1ccncc1
  -2.4 | 8.5 | -1.6
- C[C@H]1CCCCO[C@H](CN(C)C)[C@@H](C)CN([C@@H](C)CO)C(=O)c2cc(NS(=O)(=O)c3ccc(F)cc3)ccc2O1
  3.2 | 1.1 | -2.6
- Cc1noc(C)c1NC(=O)N(C)C[C@@H]1Oc2ccc(NS(=O)(=O)c3c(C)noc3C)cc2CC(=O)N([C@H](C)CO)C[C@H]1C
  1.8 | 0.3 | -0.2
- Cc1cccc(C)c1NC(=O)C(c1ccccc1OC(F)(F)F)N1CCN(c2ccc(F)cc2)CC1 (stereo unspecified)
  8.3 | 6.4 | 0.3
- O=C(Nc1ccc(F)cc1)C(CCc1ccccc1)N1CCN(C(=O)c2ccco2)CC1 (stereo unspecified)
  -3.4 | -17.9 | 1.3
- COc1ccc(-c2ccc(CN3C(C(C)C)C(=O)N(Cc4cn(CCC5OCCO5)nn4)CCS3(=O)=O)cc2)cc1OC (stereo unspecified)
  -7.4 | -16.8 | 0.2
- C[C@@H]1CN([C@@H](C)CO)C(=O)c2cc(C#CCN(C)C)cnc2O[C@H]1CN(C)C(=O)NC1CCCC1
  3.4 | 4.1 | -5.4
- Cc1noc(C)c1S(=O)(=O)N(C)C[C@H]1OCCCC[C@@H](C)Oc2ccc(NC(=O)Nc3ccccc3)cc2C(=O)N([C@@H](C)CO)C[C@H]1C
  0.8 | 0.2 | 2.0
- C/C=C/c1ccc2c(c1)O[C@H](CN(C)Cc1ccc(F)cc1)[C@@H](C)CN([C@@H](C)CO)S2(=O)=O
  -25.4 | -61.1 | 6.3
- C[C@H](CO)N1C[C@H](C)[C@@H](CN(C)S(=O)(=O)c2ccccc2)OCCCC[C@H](C)Oc2ccc(NC(=O)Nc3ccc(C(F)(F)F)cc3)cc2C1=O
  0.4 | -0.5 | -4.1
- COc1ccc2c3c([nH]c2c1)[C@@H](CO)N(C(=O)C1CCC1)CC31CCN(Cc2nccs2)CC1
  -3.6 | -2.9 | 0.7
- CCOc1ccc(NC(=O)CN(C)C2=NS(=O)(=O)c3ccccc32)cc1
  -2.3 | 6.1 | 0.5
- O=C(C[C@H]1C[C@@H]2c3cc(NC(=O)c4cccnc4)ccc3O[C@@H]2[C@@H](CO)O1)NCC(F)(F)F
  4.5 | 5.5 | 0.0
- COc1ccc(Cc2n[nH]c(=S)n2-c2cc(C)ccc2C)cc1OC
  5.1 | 10.6 | 4.6
- C[C@@H]1CN([C@H](C)CO)C(=O)c2c(c3ccccc3n2C)-c2ccccc2CO[C@@H]1CN(C)C(=O)NC1CCCCC1
  -0.5 | 0.7 | -1.9
- C[C@H](CO)N1C[C@H](C)[C@@H](CN(C)Cc2ccc(-c3ccccc3)cc2)Oc2ccc(N(C)C)cc2CC1=O
  -26.1 | -51.2 | 28.4

Record cards (already shown). Values in the order: Ecoli rRNA inh | Ecoli rRNA inh OD600 | Ecoli rRNA inh RFP
Entry for O=C(C[C@H]1C[C@@H]2c3cc(NC(=O)c4cccnc4)ccc3O[C@@H]2[C@@H](CO)O1)NCC(F)(F)F = 4.5 | 5.5 | 0.0
Entry for COc1ccc2c3c([nH]c2c1)[C@@H](CO)N(C(=O)C1CCC1)CC31CCN(Cc2nccs2)CC1 = -3.6 | -2.9 | 0.7

Continued.
Value order: Ecoli rRNA inh | Ecoli rRNA inh OD600 | Ecoli rRNA inh RFP
- C[C@@H]1CN(C(=O)OC(C)(C)C)CCN1c1ccc(N2CCN(Cc3ccccc3)[C@@H](C)C2)c(C#N)c1
  -1.1 | 1.8 | -4.1
- C[C@H]1CCCCO[C@@H](CN(C)C(=O)C2CCCCC2)[C@@H](C)CN([C@@H](C)CO)C(=O)c2cc(NC(=O)Nc3ccccc3)ccc2O1
  2.5 | 1.2 | -0.6
- C[C@@H]1CN([C@@H](C)CO)C(=O)c2cccc(NS(=O)(=O)c3ccc(Cl)cc3)c2O[C@@H]1CN(C)CC1CCCCC1
  -2.7 | -4.3 | 1.5
- C[C@@H]1CN([C@H](C)CO)C(=O)c2cc(NC(=O)CCCN(C)C)ccc2O[C@@H]1CN(C)C(=O)Nc1ccc(F)cc1
  1.7 | 1.9 | 0.9
- C[C@@H]1CCCCO[C@H](CN(C)C(=O)Nc2cccc3ccccc23)[C@H](C)CN([C@H](C)CO)C(=O)c2cc(NS(C)(=O)=O)ccc2O1
  -4.0 | -10.6 | 3.4
- COc1ccc(CNC(=O)C[C@@H]2C[C@H]3c4cc(NC(=O)CC5CC5)ccc4O[C@H]3[C@H](CO)O2)cc1
  -0.8 | -0.5 | 0.0
- CCCC#Cc1cnc2c(c1)C(=O)N([C@H](C)CO)C[C@H](C)[C@@H](CN(C)C(=O)CN1CCOCC1)O2
  10.2 | 12.6 | -5.1
- CS(=O)(=O)Nc1ccc2c(c1)[C@H]1C[C@@H](CC(=O)NC3CCCCC3)O[C@@H](CO)[C@H]1O2
  1.0 | 0.4 | -3.0
- CCCC(=O)Nc1ccc2c(c1)C(=O)N(C)C[C@H](OC)[C@@H](C)CN(C(=O)CC1CC1)[C@H](C)CO2
  1.4 | 1.3 | -0.1
- C[C@@H]1CCCCO[C@H](CN(C)S(=O)(=O)c2ccc(F)cc2)[C@H](C)CN([C@@H](C)CO)C(=O)c2cc(NC(=O)c3ccncc3)ccc2O1
  -2.7 | -12.8 | 0.0
- C[C@H](CO)N1C[C@H](C)[C@H](CN(C)Cc2cccnc2)Oc2ncc(-c3ccccc3)cc2C1=O
  1.9 | -0.2 | -6.5
- O=C(Nc1cccc(F)c1)N1CC(=O)N2[C@H](C1)[C@@H](c1ccc(C#Cc3cccnc3)cc1)[C@@H]2CO
  -10.0 | -49.3 | 28.9
- CC(C)NC(=O)N(C)C[C@H]1Oc2ccc(NC(=O)Nc3ccc4c(c3)OCO4)cc2CC(=O)N([C@@H](C)CO)C[C@H]1C
  1.4 | 8.3 | -2.5
- CCNC(=O)C[C@@H]1CC[C@@H]2[C@H](COc3ccc(NC(=O)c4ccccc4Cl)cc3C(=O)N2C)O1
  0.4 | 5.4 | -0.4
- COCC(=O)Nc1ccc2c(c1)C(=O)N(C)[C@H]1CC[C@@H](CC(=O)NCc3ccccc3F)O[C@H]1CO2
  2.6 | -1.4 | -1.1
- O=CNc1cc(-c2ccc(C(=O)NC3CC3)cc2)cn2c(-c3ccc(F)cc3)cnc12
  -11.4 | -18.6 | 9.7
- C[C@@H]1CN([C@@H](C)CO)C(=O)c2cccc(NC(=O)NC3CCCCC3)c2O[C@H]1CN(C)C(=O)NC1CCCCC1
  1.3 | 4.0 | -1.4
- CCCNC(=O)C[C@H]1CC[C@H]2[C@H](COc3ccc(NC(=O)C4CCOCC4)cc3C(=O)N2C)O1
  3.8 | 8.0 | -2.2
- O=C(Cc1cccnc1)N1CC(=O)N2[C@H](CO)[C@H](c3ccc(C#CC4CC4)cc3)[C@H]2C1
  2.1 | 7.5 | -2.9
- COc1ccc(S(=O)(=O)Nc2ccc3c(c2)CC(=O)N([C@@H](C)CO)C[C@@H](C)[C@@H](CN(C)C(=O)Nc2cccc4ccccc24)O3)cc1
  -2.5 | 0.6 | 1.3
- CC(=O)N1[C@@H]2c3cccc(=O)n3C[C@@H]2[C@@H](CO)[C@@H]1C(=O)N[C@@H](C)c1ccccc1
  -0.7 | 1.7 | -1.5
- C[C@H]1CN(C)C(=O)Cc2ccccc2O[C@@H]1CN(C)S(C)(=O)=O
  -0.7 | -2.9 | -1.5
- COc1cccc(-c2ccc3c(c2)O[C@@H](CN(C)C)[C@@H](C)CN([C@@H](C)CO)S3(=O)=O)c1
  8.3 | 14.4 | -1.7
- C[C@H](CO)N1C[C@H](C)[C@@H](CN(C)Cc2ccc(-c3ccccc3)cc2)Oc2ccc(NC(=O)c3ccncc3)cc2CC1=O
  -25.0 | -36.3 | 12.4
- Cc1nc(C(F)(F)F)ccc1C(=O)N1CCC(C)(C(=O)NS(=O)(=O)C2CC2)C1 (stereo unspecified)
  2.5 | 6.0 | -2.0
- O=C(NCc1ccccc1)C(c1ccc(C(F)(F)F)cc1)N1CCN(CCN2CCOCC2)CC1 (stereo unspecified)
  17.4 | 9.7 | 2.4
- C[C@@H]1CN([C@H](C)CO)C(=O)Cc2cc(NC(=O)Nc3cccc4ccccc34)ccc2O[C@H]1CN(C)S(=O)(=O)c1cn(C)cn1
  0.4 | 3.4 | -0.4
- COc1ccc2c3c(n(C)c2c1)[C@@H](CO)N(C(=O)C1CCCC1)CC31CN(C(=O)CC2CC2)C1
  -3.3 | -8.2 | -1.9
- C[C@@H]1CN([C@@H](C)CO)C(=O)Cc2cc(NS(=O)(=O)c3ccc(F)cc3)ccc2O[C@@H]1CN(C)S(C)(=O)=O
  -2.7 | -0.3 | 0.5
- CCCNC(=O)C1(C)CCN(C(=O)c2cc(C)n(C(C)(C)C)n2)C1 (stereo unspecified)
  5.3 | 10.2 | -3.1

Next entries follow.
Value order: Ecoli rRNA inh | Ecoli rRNA inh OD600 | Ecoli rRNA inh RFP
- O=C(NCC(F)(F)F)[C@H]1[C@H](CO)[C@H]2Cn3c(cccc3=O)[C@H]2N1C(=O)c1ccccc1F
  -1.7 | 4.2 | -3.1
- COc1ccccc1NC(=O)N(C)C[C@H]1Oc2ncc(Br)cc2C(=O)N([C@@H](C)CO)C[C@@H]1C
  -1.7 | 0.7 | -1.1
- C[C@H]1CN([C@@H](C)CO)C(=O)c2cc(NC(=O)Nc3ccc(C(F)(F)F)cc3)ccc2O[C@@H]1CN(C)S(=O)(=O)c1cn(C)cn1
  -4.7 | -3.7 | 3.7
- C[C@@H]1CCCCO[C@H](CN(C)C(=O)Nc2ccc(F)cc2)[C@@H](C)CN([C@@H](C)CO)C(=O)c2cc(NC(=O)C3CCCCC3)ccc2O1
  -0.2 | 6.5 | 0.1
- COc1ccc(S(=O)(=O)Nc2ccc3c(c2)C(=O)N([C@H](C)CO)C[C@H](C)[C@@H](CN(C)C(=O)Nc2cccc4ccccc24)O3)cc1
  -1.9 | -4.0 | 3.1
- O=C(NCCN1CCC(n2c(=O)[nH]c3ccccc32)CC1)c1cccs1
  21.5 | 16.1 | -1.3
- O=C(N[C@H](C(=O)N1CCC[C@H]1C(=O)NC1CCCC1)c1ccccc1)c1ccccc1
  5.5 | 5.2 | 4.9
- CC(C)NC(=O)Nc1cccc2c1O[C@H](CN(C)Cc1ccc(Cl)c(Cl)c1)[C@H](C)CN([C@H](C)CO)C2=O
  -1.2 | 0.6 | -0.1
- C[C@@H]1CN([C@@H](C)CO)C(=O)Cc2cc(NC(=O)Nc3cccc4ccccc34)ccc2O[C@H]1CN(C)S(=O)(=O)c1cccs1
  -1.1 | -4.7 | -2.0
- O=C(C[C@@H]1C=C[C@H](NC(=O)c2ccc3c(c2)OCO3)[C@@H](CO)O1)NCc1ccc(F)cc1
  -6.4 | 4.6 | -1.7
- O=C([C@@H]1[C@@H](CO)[C@@H]2Cn3c(cccc3=O)[C@H]1N2S(=O)(=O)c1ccccc1F)N1CCOCC1
  2.0 | 1.2 | 0.8
- COCCNc1nc2cc(-c3cccc(C(F)(F)F)c3)sc2c(=O)n1C
  4.3 | 2.5 | 5.6
- Cc1noc(C)c1S(=O)(=O)N(C)C[C@H]1OCCCC[C@H](C)Oc2ccc(NS(=O)(=O)c3cccs3)cc2C(=O)N([C@@H](C)CO)C[C@@H]1C
  4.5 | 0.8 | 6.4
- O=C(OCc1cn([C@H]2C[C@H](c3ccccc3)N(CC3CCCCC3)C[C@@H]2O)nn1)c1ccccc1
  9.2 | 4.2 | 3.4

A portion of the library. The share of hits here may be higher or lower than overall.
